# From PubChem
# FGF22 binding: shifts melting point of recombinant human FGF22; recombinant FGF22 thermal shift, SYPRO orange fluorescence; percent of sucrose octasulfate shift, DMSO zero; calls only at 9.99 µM; 340,000 tested, 1.5% active;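 active means melting point raised past a set limit in the mean and every replicate; inconclusive means no clear call; three in four hits are not shown here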
# Target sequence (Q9HCT0 whole entry, looked up): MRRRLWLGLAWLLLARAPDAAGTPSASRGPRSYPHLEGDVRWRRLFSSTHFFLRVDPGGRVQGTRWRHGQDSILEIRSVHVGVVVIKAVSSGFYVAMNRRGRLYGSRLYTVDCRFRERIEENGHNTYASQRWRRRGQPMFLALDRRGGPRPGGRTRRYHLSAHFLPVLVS
# Beta apoptosis: beta cell apoptosis inhibition | INS-1E cytokine-induced death, ATP luminescence, 48 h; percent of positive-control rescue, neutral wells zero | protection from apoptosis, % (no concentration beside the values) | 300,000 tested, 0.8% active | AID 435005;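 active means all replicates at 75% or more, or half of them and the mean; inconclusive means half reach 75% but not the mean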;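 further: 0% = cytokine-treated negative control wells and 100% = positive control rescue; higher means more ATP so stronger rescue from cytokine killing; wells of about 40 µL received 100 nL stock; the first replicate is given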
# RanGTP-Imp inh: inhibitors of RanGTP-importin-beta interaction, primary screen, biochemical, FRET, CFP-Ran, YFP-importin-beta, homogeneous. cell-free CFP-Ran/YFP-importin-beta FRET ratio. inhibition, % (no concentration beside the values). 300,000 tested, 1.1% active;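 active means most replicates above 15%; inconclusive means exactly half above 15%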;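 further: 0% = DMSO wells and 100% = Ran loaded with GDP instead of GTP; wells of about 40 µL received 100 nL stock; the first replicate is given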
# rRNA inh HTS: selective bacterial rRNA inhibition in E. coli | AID 720706 | 350,000 tested, 1.6% active | GFP signal change (wild-type ribosome), % (concentration not given with the values) | E. coli WT GFP vs humanized-ribosome RFP mutants, fluorescence, 24 h; hits give low values; DMSO median 0, no signal -100;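 active means significant combined selectivity score with lowered wild-type GFP, culture density cut under 30%, mutant RFP and density less affected; inactive means any of these conditions unmet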; further: one replicate is shown; some compounds called inactive have numbers as strong as hits
# MLL AF4-AF9 inh: blocks AF4 peptide binding to human AF9. P42568. AlphaScreen, biotin-AF4 peptide binding to FLAG-AF9. inhibition, % at 10 µM. 350,000 tested, 0.47% active;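 active means every replicate reaching a set inhibition limit, whatever the replicate mean, cut at about 25% in these data; inconclusive means mean inhibition reaches that limit but some replicates miss it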;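 further: 0% = plate neutral control median and 100% = total signal loss; the record names both 10 and 1 µM as test concentration; the first replicate is given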
# Target sequence (P42568 whole entry, looked up): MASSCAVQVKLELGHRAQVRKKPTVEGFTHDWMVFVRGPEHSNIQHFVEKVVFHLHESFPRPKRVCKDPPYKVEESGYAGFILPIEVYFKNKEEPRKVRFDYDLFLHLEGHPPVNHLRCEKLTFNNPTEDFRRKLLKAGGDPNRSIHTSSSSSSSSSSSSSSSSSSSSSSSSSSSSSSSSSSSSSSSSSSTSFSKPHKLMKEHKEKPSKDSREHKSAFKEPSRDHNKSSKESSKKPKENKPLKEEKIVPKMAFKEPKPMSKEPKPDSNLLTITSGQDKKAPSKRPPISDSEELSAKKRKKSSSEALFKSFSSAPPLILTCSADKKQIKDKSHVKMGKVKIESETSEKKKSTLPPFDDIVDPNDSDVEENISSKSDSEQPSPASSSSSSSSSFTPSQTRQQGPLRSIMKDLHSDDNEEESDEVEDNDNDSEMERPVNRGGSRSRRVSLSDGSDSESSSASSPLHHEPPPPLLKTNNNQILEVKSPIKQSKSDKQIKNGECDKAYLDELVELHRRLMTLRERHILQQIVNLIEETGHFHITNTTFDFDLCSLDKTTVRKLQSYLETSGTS
# T cruzi inh: blocks replication of Trypanosoma cruzi; AID 1885; inhibition, % (test concentration not listed); 300,000 tested, 1.4% active; T. cruzi beta-gal in NIH3T3, luminescence, 90 h;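 active means mean inhibition across valid replicates above about 55%, limit read from the data; inconclusive means mean below that limit but half or more replicates reach it; inactive means mean below it, under half of replicates reach it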;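 further: signal also drops with host cell toxicity which is not excluded here; 0% = plate median of DMSO wells and 100% = zero luminescence signal; higher percent means less beta-gal luminescence so fewer parasites; stock transfer was 50 nL into about 50 µL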
# ALR H2O2 inh: inhibitors of human sulfhydryl oxidase ALR; P55789; purified ALR, DTT oxidation, H2O2 HRP-luminol luminescence; inhibition, % (test concentration not listed); 290,000 tested, 3.8% active; AID 485317;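 active means mean and each replicate at 75% or more; inconclusive means only one of the two met; inactive means neither met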;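 further: stock transfer was 7.5 nL into about 7.5 µL; 0% = neutral wells and 100% = wells with inactivated enzyme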
# Target sequence (P55789 whole entry, looked up): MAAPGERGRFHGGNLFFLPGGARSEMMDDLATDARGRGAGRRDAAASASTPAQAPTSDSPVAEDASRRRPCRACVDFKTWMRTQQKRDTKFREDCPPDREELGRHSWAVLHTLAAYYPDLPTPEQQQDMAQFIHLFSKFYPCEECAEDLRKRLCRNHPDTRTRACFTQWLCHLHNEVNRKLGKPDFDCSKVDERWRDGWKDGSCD
# Calb FLC: C. albicans growth modulation with fluconazole | C. albicans CaCi-2 (fluconazole-resistant clinical isolate) + fluconazole, Alamar Blue growth, 48 h | growth inhibition, % (no concentration beside the values) | 300,000 tested, 0.57% active;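 active means most replicates above 75%; inconclusive means exactly half above 75%; inactive means most below 75%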;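 further: all wells also contain fluconazole at 8 µg/ml as a sub-toxic cotreatment; 0% = median of DMSO wells and 100% = median of geldanamycin control wells; wells of about 8 µL received 7.5 nL stock; the first replicate is given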
# rRNA inh HTS OD600: recorded beside rRNA inh HTS, whose call it bears; OD600 change, %; measured here: OD600 growth;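 optical density of the mix in the first replicate; 0 = DMSO median and -100 = no signal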
# rRNA inh HTS RFP: second read-out of rRNA inh HTS, no call of its own (marks repeat the call); RFP signal change, %; measured here: RFP humanized mutant strains;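 first replicate; 0 = DMSO median and -100 = no signal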
# Starred values were filed as active, the others as inactive; i = inactive; ? = inconclusive; · = not tested or not shown. A portion of the library; rates above refer to the full screens.
SMILES,FGF22 binding,Beta apoptosis,RanGTP-Imp inh,rRNA inh HTS,rRNA inh HTS OD600,rRNA inh HTS RFP,MLL AF4-AF9 inh,T cruzi inh,ALR H2O2 inh,Calb FLC
COc1cc(-c2nnc(SCC(=O)Nc3ccc(C(=O)O)cc3)o2)cc(OC)c1OC,i,0,·,15,13,1.3,4.9,·,·,·
CN(CC(=O)Nc1ccccc1Cl)C(=O)CN1C(=O)NC(c2ccccc2)(c2ccccc2)C1=O,i,-10,·,-15,-34,-1.4,-63,·,-1,·
Cn1cc(CNC(=O)c2cc(COc3ccc4c(c3)CCCC4)on2)cn1,i,4,1.1,-32*,-21*,-4.2*,2.7,-7,33,3
NCCCC[C@H]1CNC(=O)C(=O)N1CCc1cccc(F)c1,i,-5,-15,22,9,-1.8,-2.3,-4,-6,8
COc1cccc(CNC(=O)COC(=O)c2nc(Cl)c(Cl)c(Cl)c2Cl)c1,i,-5,·,1,1,0.5,3.0,·,·,·
COc1ccc(CCNC(=O)CSc2nc3ccccc3o2)cc1,·,-1,-3.9,·,·,·,·,2,-11,-9
COc1nc(NCCc2ccc(OC)c(OC)c2)nc(OC)n1,·,-3,6.5,·,·,·,·,-4,-5,-5
N#C/C(=C(/O)CN1CCOCC1)c1nc(-c2ccccc2)cs1,·,·,2.8,·,·,·,·,-16,36,11
CCc1nc(SCc2ccc(OC)c(Br)c2)n[nH]1,i,-11,-0.3,0,-3,-0.8,-2.1,0,71,-13
COc1cc(CNCc2cccs2)ccc1OCC(=O)NC(C)(C)C,·,0,2.7,·,·,·,·,12,-2,0
Cc1cccn2c(=O)c3cc(C(=O)NC4CCCC4)c(=N)n(C4CCCC4)c3nc12,·,18,180*,·,·,·,·,?,2,2
CCOC(CNC(=O)C(=O)Nc1cc2c3c(c1)CCN3C(=O)CC2)OCC,i,-5,0.3,3,1,-3.1,-0.9,-5,-4,-16
COc1ccc(CN(CC(=O)NC2CCCC2)C(=O)CCC(=O)Nc2nc(C)cs2)cc1,i,-5,2.9,-5,-1,0.0,21,7,-3,2
C=CCS(=O)(=O)N1CCCC(N2CCN(c3ccccc3OC)CC2)C1 (stereo not drawn),i,·,-5.6,3,9,-1.7,2.5,-2,·,-1
COC(=O)c1sc(NC(=O)/C=C/c2ccccc2Cl)nc1C,i,-4,-6.2,6,1,-3.8,-1.1,-36,19,-24
CN(C)C(=O)CSc1nc2ccccc2n1CC(=O)N1CCN(c2ccccc2)CC1,·,3,-0.4,·,·,·,·,6,33,27
Cc1ccc(-c2csc(NC(=O)CSc3nc4ccccc4o3)n2)cc1,·,-7,4.3,·,·,·,·,5,-2,1
O=C(O/N=C(\c1ccccc1)c1ccncc1)c1ccccc1F,i,-7,-5.4,5,1,0.2,1.5,-10,3,13
O=C(CSc1nnc(NC(=O)c2ccc(F)cc2)s1)NC1CCCC1,i,·,0.4,-2,-2,-4.1,-0.6,12,-4,3
CCn1cc(C(=O)OCC(=O)c2ccccc2)c(=O)c2ccc(C)nc21,i,·,6.4,-4,-9,-4.8,-1.3,-7,·,24
CC(=O)Nc1cc(C(=O)NCc2ccco2)ccc1Sc1ccc(C)cc1,·,0,-6.6,·,·,·,·,-18,·,4
O=c1[nH]c(-c2ccccc2)nn1-c1ccc(Br)cc1Br,i,0,-3.0,6,10,-2.3,-7.2,-4,-8,10
COc1ccc(OC(C)C(=O)Nc2cccc(F)c2)cc1 (stereo not drawn),i,4,-4.4,-23*,-15*,-4.4*,-2.7,0,4,-15
COC(=O)c1sccc1NC(=S)Nc1cc(C)cc(C)c1,i,2,-1.5,0,9,0.9,13,5,-11,0
COCCCNC(=S)Nc1ccccc1C,i,-2,-2.1,14,14,2.2,2.6,-23,-4,2
# The list goes on:
SMILES,FGF22 binding,Beta apoptosis,RanGTP-Imp inh,rRNA inh HTS,rRNA inh HTS OD600,rRNA inh HTS RFP,MLL AF4-AF9 inh,T cruzi inh,ALR H2O2 inh,Calb FLC
COc1ccc(NC(=O)C2CC(=O)OC23CCCCC3)cc1 (stereo not drawn),·,-1,3.6,·,·,·,·,-1,-6,5
Cc1ccc(OCC(=O)Nc2cc(C)on2)c([N+](=O)[O-])n1,i,-4,2.8,0,-1,-2.0,-1.9,13,-9,2
COc1ccc(-c2c(C#N)c(N)nc3c2c(=O)n(C)c(=O)n3C)cc1Cl,·,-1,-4.3,·,·,·,·,-5,0,-4
CCNc1nc(NCC)nc(C(=O)OCCO)n1,i,-3,-5.9,9,10,0.6,7.4,-2,-2,0
Oc1c(C=Nc2ccc(Cl)cn2)sc2ccccc12,i,2,?,-1,-5,26,11,5,-29,0
COc1ccc2c(c1)C(c1ccc(Cl)cc1)NC(=O)C2 (stereo not drawn),i,-6,-0.3,6,8,-9.8,-6.8,1,-14,-14
Cn1cccc1-c1nc2ccc(NC(=O)c3ccco3)cc2[nH]1,·,24,4.1,·,·,·,·,-3,·,-2
CSc1ccc(CCNC(=O)CN2C(=O)c3cccnc3Oc3ccc(C)cc32)cc1,i,-4,9.7,0,-23,1.4,2.1,21,4,3
COc1ccc2cc3c(nc2c1)OCC3,i,-6,3.5,8,5,-0.7,0.1,-5,-1,11
O=C(Nc1ccccc1N1CCCCC1)C1=COCCO1,i,-5,·,-55,-74,-17,2.7,·,16,·
N#Cc1sc(C(N)=O)c(-c2ccccc2)c1-c1ccccc1,·,-2,-1.8,10,0,1.2,-3.3,7,-7,5
COCCCNC(=O)c1ccc(CS(=O)(=O)c2ccccc2C)o1,i,-4,-2.0,16,16,2.5,-18,-4,·,-11
COCCN1Cc2cccc(C(=O)NCc3ccc4c(c3)OCO4)c2C1=O,i,-9,-3.9,·,·,·,-0.3,15,-6,-5
COc1ccccc1OCCC(=O)OCC(=O)NCc1ccccc1,·,-1,-1.9,·,·,·,·,-3,0,-1
O=C(Nc1ccc(-c2n[nH]c(=S)o2)cc1)c1ccccc1Cl,i,-4,-0.6,-10,-1,-4.7,-2.4,-9,29,4
CCn1cc(/C=C/C(=O)Nc2ccn(Cc3c(F)c(F)cc(F)c3F)n2)cn1,i,6,2.2,-18,-12,-3.6,-1.6,23,·,2
Cn1c(=O)cc(NCc2ccccc2)[nH]c1=O,·,-3,-2.9,·,·,·,·,2,5,4
CN(c1cc(=O)n2ccccc2n1)C1CCCCC1,·,0,-1.1,·,·,·,·,-5,3,16
CCOC(=O)c1c(NC(=O)c2nn(C)cc2[N+](=O)[O-])sc(C)c1C,i,-1,0.4,11,3,1.0,0.8,21,-6,-2
CN1CCN(NC(=O)/C=C/c2cccc(Cl)c2)CC1,i,2,3.0,1,-10,-3.2,-2.1,26,29,8
CNc1oc(C)nc1S(=O)(=O)c1ccc(C)cc1,·,·,2.9,·,·,·,·,-8,40,1
O=C1c2ccccc2C(Nc2ccc(S(=O)(=O)N3CCCCCC3)cc2)N1Cc1ccco1 (stereo not drawn),i,12,6.4,-5,-12,9.1,0.4,13,-4,19
Cc1cc(NC(=O)c2ccccc2Oc2ccccc2)no1,·,-4,-1.3,·,·,·,·,5,-5,-19
CC(C)CCNc1ncnc2c1cnn2Cc1ccccc1Cl,i,1,-1.4,-8,-6,0.9,0.7,13,-4,3
CCN(CC(=O)Nc1cccc(S(=O)(=O)N2CCCCC2)c1)Cc1ccccc1,i,61,16*,-11,-34,-2.1,6.6,16,-23,0
# Later entries.
SMILES,FGF22 binding,Beta apoptosis,RanGTP-Imp inh,rRNA inh HTS,rRNA inh HTS OD600,rRNA inh HTS RFP,MLL AF4-AF9 inh,T cruzi inh,ALR H2O2 inh,Calb FLC
CC(C)(C)CN1CCNC(=O)C1CC(=O)NCCN1CCCc2ccccc21 (stereo not drawn),i,-6,-1.3,27,19,9.7,5.7,-8,63,-19
COc1cccc(O)c1CN1CCC(C(=O)Nc2ccc(Oc3cccnc3)cc2)CC1,i,2,-1.1,0,5,1.3,3.1,10,17,-15
CCCn1c(=O)n(C)c(=O)c2c(SCC(=O)NCC(c3ccccc3)N(C)C)nc(CC(C)C)nc21 (stereo not drawn),i,5,4.6,-5,-10,-1.9,5.0,13,-1,-4
CN(C)/C=C/c1oc2ccc(O)cc2c1[N+](=O)[O-],i,5,-11,-30*,-8.3*,1.4*,2.6,7,-1,29
O=C(COC(=O)Cc1ccccc1F)Nc1cc(S(=O)(=O)N2CCOCC2)ccc1N1CCCC1,i,-3,-2.9,-3,6,6.3,5.1,-6,-4,18
CCOC(=O)c1c(C)nn(-c2ccc(NC(=O)c3c(C)noc3C)cc2)c1C,i,·,3.9,14,10,6.0,-1.2,2,·,-8
Cc1noc(/C=C/c2cccs2)c1S(=O)(=O)N1CCC(C(=O)NCCCN2CCC(C)CC2)CC1,i,1,-2.2,-15,-16,4.4,13,10,-21,-6
Nc1c(S(=O)(=O)c2ccccc2)c2nc3ccccc3nc2n1CCN1CCOCC1,i,-2,2.9,-5,-1,0.1,-1.0,12,0,88*
CC(=O)N=C1SC2CS(=O)(=O)CC2N1Cc1ccc(C)cc1 (stereo not drawn),i,-2,-1.5,0,-3,-1.0,-2.7,-9,·,1
O=C(NNC(=S)Nc1ccccc1)c1ccncc1,·,4,4.1,·,·,·,·,-11,64,-4
COc1cccc(C(=O)CC(C(=O)O)c2ccc(F)cc2)c1 (stereo not drawn),i,-2,3.0,1,-7,7.0,-3.8,-5,27,?
COc1cc2cc(C)c3nnc(SCC(=O)Nc4cc(C)on4)n3c2cc1OC,i,-6,-4.3,15,16,-1.1,-8.9,4,-2,-4
CCOC(=O)NC(=O)c1cn(N(C)c2ncc(C(F)(F)F)cc2Cl)c(=O)[nH]c1=O,i,-3,2.1,8,5,-1.1,-5.8,-14,3,28
CCN(CC)S(=O)(=O)c1ccc(OC)c(NC(=O)c2cc(=O)[nH]c3ccccc23)c1,·,1,-2.5,15,3,-3.4,2.2,2,-14,?
CCOC(=O)NC(=O)/C(C=Nc1ccc(Cl)cc1)=C(\C)O,i,·,1.4,6,6,-1.2,-3.1,7,-6,-2
COc1ccc2oc(C(=O)c3ccccc3)c(N)c2c1,·,·,3.2,·,·,·,·,-3,-3,18
COc1cc(C(=O)OCc2nc3ccsc3c(=O)[nH]2)c([N+](=O)[O-])cc1OC,i,1,5.0,3,10,-1.8,4.3,-13,-4,-4
Cc1noc(C)c1C(=O)N1CCN(S(=O)(=O)c2cccs2)CC1,i,3,-2.2,6,7,2.8,-0.9,9,-2,-2
CC(=O)c1c(C)[nH]c(C(=O)OCC(=O)N2c3ccccc3NC(=O)C2(C)C)c1C,·,-12,0.4,·,·,·,·,0,-21,0
Cc1cc([N+](=O)[O-])nn1CCCC(=O)Nc1ccc2c(c1)OCO2,i,-3,5.7,-3,21,-1.2,-0.3,0,-7,9
Cc1nc(NCc2ccco2)nc2c1C(=O)CC(C)C2 (stereo not drawn),·,-1,6.5,·,·,·,·,-12,-2,1
O=C(O)/C=C/C(=O)NCc1ccccn1,i,-10,1.1,0,4,-0.8,-1.0,-17,-7,-16
Nc1nc2ccccc2n1Cc1ccc(Cl)c(Cl)c1,i,29,5.4,-53,-84,-24,-2.2,20,-14,15
